ALR H2O2 inh – inhibitors of human ALR sulfhydryl oxidase, primary screen, biochemical, H2O2 detection, HRP-luminol luminescence, single point; FAD-linked sulfhydryl oxidase ALR (Homo sapiens), P55789; purified ALR, DTT oxidation; inhibition, % (no concentration beside the values); 3.8% of 290,000 active; AID 485317, 2010;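 active = mean and each replicate at 75% or more; inconclusive = only one of the two met; inactive = neither met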;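 note: stock transfer was 7.5 nL into about 7.5 µL; 0% = neutral wells and 100% = wells with inactivated enzyme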
LANA-H2B inh – blockers of LANA interaction with H2A/H2B – biochemical, FP readout, HTS, primary screen. inhibition, % (test concentration not listed). cell-free LANA-H2A/H2B peptide, fluorescence polarization. 0.6% of 320,000 active; in the data active = inhibition mostly above about 10%, no sharp cut-off; inactive = mostly below about 6.7%;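 note: stock transfer was 7.5 nL into about 10 µL; 0% = median of vehicle wells and 100% = median of positive control wells; one replicate is shown; the record names a cut of 25% in any replicate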
Target sequence (Q9QR71 whole entry, looked up): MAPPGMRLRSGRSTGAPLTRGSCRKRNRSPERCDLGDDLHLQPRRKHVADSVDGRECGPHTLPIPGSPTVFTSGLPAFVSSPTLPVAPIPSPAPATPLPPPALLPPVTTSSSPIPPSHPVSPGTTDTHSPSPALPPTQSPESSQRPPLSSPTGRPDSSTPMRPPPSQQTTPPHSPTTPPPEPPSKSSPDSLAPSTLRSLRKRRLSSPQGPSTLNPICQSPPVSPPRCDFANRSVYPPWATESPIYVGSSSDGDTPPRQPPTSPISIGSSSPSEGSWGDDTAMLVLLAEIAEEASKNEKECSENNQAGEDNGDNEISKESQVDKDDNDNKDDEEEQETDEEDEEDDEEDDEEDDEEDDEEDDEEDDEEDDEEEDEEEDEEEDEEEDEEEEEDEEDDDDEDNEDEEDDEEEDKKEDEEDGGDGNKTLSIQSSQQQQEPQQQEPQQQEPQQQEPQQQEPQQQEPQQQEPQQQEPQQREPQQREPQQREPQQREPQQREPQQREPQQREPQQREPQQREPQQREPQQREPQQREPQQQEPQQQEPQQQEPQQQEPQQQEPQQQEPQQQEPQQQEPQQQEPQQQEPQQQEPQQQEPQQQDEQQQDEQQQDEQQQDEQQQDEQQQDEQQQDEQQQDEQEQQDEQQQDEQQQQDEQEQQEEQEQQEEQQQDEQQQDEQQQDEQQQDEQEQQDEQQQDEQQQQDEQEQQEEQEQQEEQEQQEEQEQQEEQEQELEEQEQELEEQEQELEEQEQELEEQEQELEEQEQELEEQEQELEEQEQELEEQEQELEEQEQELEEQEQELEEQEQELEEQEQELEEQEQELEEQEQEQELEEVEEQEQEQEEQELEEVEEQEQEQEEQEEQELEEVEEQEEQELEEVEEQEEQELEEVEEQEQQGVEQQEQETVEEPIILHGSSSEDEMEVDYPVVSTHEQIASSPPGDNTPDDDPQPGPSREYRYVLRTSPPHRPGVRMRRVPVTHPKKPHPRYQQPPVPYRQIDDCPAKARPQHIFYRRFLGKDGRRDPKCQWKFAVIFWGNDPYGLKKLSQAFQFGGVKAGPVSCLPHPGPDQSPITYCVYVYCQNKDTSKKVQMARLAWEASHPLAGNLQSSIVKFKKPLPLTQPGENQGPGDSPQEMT
Calb FLC – C. albicans growth inhibition with fluconazole, primary screen, CaCi-2 strain, Alamar Blue fluorescence | AID 1979, 2009 | growth inhibition, % (test concentration not listed) | C. albicans CaCi-2 (fluconazole-resistant clinical isolate) + fluconazole, 48 h | 0.57% of 300,000 active;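 active = most replicates above 75%; inconclusive = exactly half above 75%; inactive = most below 75%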;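 note: all wells also contain fluconazole at 8 µg/ml as a sub-toxic cotreatment; 0% = median of DMSO wells and 100% = median of geldanamycin control wells; wells of about 8 µL received 7.5 nL stock; the first replicate is given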
A1 inh – caspase 3/7 activation in MEF A1-2A-BIM cells, primary screen, A1 inhibitor project, cell-based, luminescence, HTS; Caspase-Glo 3/7 luminescence, 3 h; percent of clofoctol response, vehicle zero; 0.066% of 330,000 active; caspase activation, % (concentration not given with the values);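 active = over half of replicate activation scores above 10%, or exactly half above 10 with the replicate mean above 10; inconclusive = replicate mean below 10 yet half the replicates above 10; inactive = over half of replicates below 10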;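 note: wells of about 30 µL received 50 nL stock; many hits fall short of the cut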
B2AR ag – beta2AR agonists driving receptor internalization, primary screen, cell-based, FAP fluorogen, flow cytometry. 0.43% of 340,000 active. response, % (test concentration not listed). Beta-2 adrenergic receptor (Homo sapiens), P07550. Am2.2-beta2AR cells; reference of the scale not given here;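 active = response above a set limit, near 3 SD of response in nonfluorescent compounds, cut at about 42% in these data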;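 note: stock transfer was 100 nL into about 11 µL; a reference agonist was the positive control; negative values mostly stem from fluorescent compounds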
T cruzi repl – inhibitors of intracellular T. cruzi growth, primary screen, luminescence, NIH3T3 host cells | T. cruzi beta-gal in NIH3T3, 90 h | AID 1885, 2009 | 1.4% of 300,000 active | inhibition, % (no concentration beside the values);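 active = mean inhibition across valid replicates above about 55%, limit read from the data; inconclusive = mean below that limit but half or more replicates reach it; inactive = mean below it, under half of replicates reach it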;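 note: signal also drops with host cell toxicity which is not excluded here; 0% = plate median of DMSO wells and 100% = zero luminescence signal; higher percent means less beta-gal luminescence so fewer parasites; stock transfer was 50 nL into about 50 µL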
Ecoli rRNA inh – reduced GFP signal of wild-type E. coli, primary screen, bacterial rRNA inhibitor project, GFP/RFP fluorescence, OD600, single point. E. coli WT GFP vs humanized-ribosome RFP mutants, 24 h; active compounds read low; DMSO median 0, no signal -100. GFP signal change (wild-type ribosome), % (test concentration not listed). 1.6% of 350,000 active. AID 720706, 2013;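 active = significant combined selectivity score with lowered wild-type GFP, culture density cut under 30%, mutant RFP and density less affected; inactive = any of these conditions unmet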; note: one replicate is shown; some compounds called inactive have numbers as strong as hits
Beta cell apopt – inhibitors of cytokine-induced beta cell apoptosis, primary screen, luminescence; INS-1E cytokine-induced death, ATP luminescence, 48 h; percent of positive-control rescue, neutral wells zero; protection from apoptosis, % (test concentration not listed); 0.8% of 300,000 active;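 active = all replicates at 75% or more, or half of them and the mean; inconclusive = half reach 75% but not the mean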;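 note: 0% = cytokine-treated negative control wells and 100% = positive control rescue; higher means more ATP so stronger rescue from cytokine killing; wells of about 40 µL received 100 nL stock; the first replicate is given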
Ecoli rRNA inh OD600 – further read-out of Ecoli rRNA inh, marked with its call; OD600 change, %; measured here: OD600 growth;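 optical density of the mix in the first replicate; 0 = DMSO median and -100 = no signal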
Ecoli rRNA inh RFP – second read-out of Ecoli rRNA inh, no call of its own (marks repeat the call); RFP signal change, %; measured here: RFP humanized mutant strains;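 first replicate; 0 = DMSO median and -100 = no signal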
Numbers without * were called inactive. These rows are one share of the data; the hit share may differ from the screen's.

Results for COc1cccc(C(=O)Nc2nc3ccccc3[nH]2)c1 ?
ALR H2O2 inh: -1; LANA-H2B inh: -1.0; Calb FLC: -10; A1 inh: -0.8; B2AR ag: -15; T cruzi repl: 12; Beta cell apopt: 13

What do the screens show for `CCC(C)c1ccc(NC(=S)N2CCN(c3ccccn3)CC2)cc1` (configuration not stated)?
ALR H2O2 inh: -20; LANA-H2B inh: -0.1; Calb FLC: -1; A1 inh: -1.0; B2AR ag: 0; T cruzi repl: 1; Ecoli rRNA inh: -27; Beta cell apopt: -7; Ecoli rRNA inh OD600: -45; Ecoli rRNA inh RFP: 0.1

Results for COC(=O)Cn1c(=NC(=O)c2sc3ccccc3c2Cl)sc2cc(S(N)(=O)=O)ccc21 ?
ALR H2O2 inh: -9; LANA-H2B inh: 7.4; Calb FLC: 5; A1 inh: 0.0; B2AR ag: -3; T cruzi repl: 19; Ecoli rRNA inh: 12; Beta cell apopt: -1; Ecoli rRNA inh OD600: 7; Ecoli rRNA inh RFP: 9.1

What do the screens show for `CC(=O)c1c(O)ccc2c(-c3ccccc3)cc(=O)oc12`?
ALR H2O2 inh: -1; LANA-H2B inh: 1.0; Calb FLC: -5; A1 inh: -0.3; B2AR ag: 3; T cruzi repl: -7; Beta cell apopt: -5

What do the screens show for `Cc1ccc(NC(=O)CCC(=O)NNC(=O)c2ccccc2[N+](=O)[O-])c(C)c1`?
ALR H2O2 inh: -8; LANA-H2B inh: -2.0; Calb FLC: -1; A1 inh: -0.1; B2AR ag: 0; T cruzi repl: -8; Ecoli rRNA inh: 11; Beta cell apopt: -2; Ecoli rRNA inh OD600: 5; Ecoli rRNA inh RFP: -5.5

Results for O=C(O)/C=C/C(=O)NCCC1=CCCCC1 ?
ALR H2O2 inh: -4; LANA-H2B inh: -0.5; Calb FLC: 21; A1 inh: -0.2; B2AR ag: 6; T cruzi repl: -10; Ecoli rRNA inh: 7; Beta cell apopt: -4; Ecoli rRNA inh OD600: -4; Ecoli rRNA inh RFP: -0.8

How did COC(CNC(=O)c1ccc2c(c1)nc(C)n2-c1cccc(F)c1)OC do in these assays?
ALR H2O2 inh: 1; LANA-H2B inh: -12; Calb FLC: 4; A1 inh: 0.5; B2AR ag: 8; T cruzi repl: -3; Ecoli rRNA inh: 1; Beta cell apopt: -3; Ecoli rRNA inh OD600: -6; Ecoli rRNA inh RFP: -0.2

Results for CCc1nn(CC(=O)NCCCN(C)C2CCCCC2)c(=O)c2cc3occc3n12 ?
ALR H2O2 inh: -1; LANA-H2B inh: 0.5; Calb FLC: 6; A1 inh: 0.1; B2AR ag: 5; T cruzi repl: 0; Beta cell apopt: -6

What do the screens show for `O=C(CNC(=O)c1ccco1)N/N=C/c1cccs1`?
ALR H2O2 inh: -4; LANA-H2B inh: -2.1; Calb FLC: -2; A1 inh: 0.9; B2AR ag: 1; T cruzi repl: -16; Ecoli rRNA inh: 10; Beta cell apopt: 2; Ecoli rRNA inh OD600: 5; Ecoli rRNA inh RFP: 2.5

Results for O=C(Nc1ccc(Br)cc1)c1cccc(OC(=S)N2CCOCC2)c1 ?
LANA-H2B inh: -2.5; Calb FLC: 3; A1 inh: -0.6; B2AR ag: 77*; T cruzi repl: -11; Ecoli rRNA inh: -8; Beta cell apopt: 7; Ecoli rRNA inh OD600: -29; Ecoli rRNA inh RFP: 1.6

Results for O=C(O)CN1C(=O)/C(=C\c2cc(Br)ccc2OCc2ccc(Cl)cc2)SC1=S ?
ALR H2O2 inh: 98*; LANA-H2B inh: 0.5; Calb FLC: 0; A1 inh: -1.0; B2AR ag: 1; T cruzi repl: -19; Ecoli rRNA inh: -55; Beta cell apopt: -5; Ecoli rRNA inh OD600: -72; Ecoli rRNA inh RFP: -13

What do the screens show for `CCCOc1ccc(-c2nc3c(c(=O)[nH]c(=O)n3Cc3ccccc3)n2CCO)cc1OCC`?
ALR H2O2 inh: 1; LANA-H2B inh: -1.0; Calb FLC: -1; A1 inh: -0.9; B2AR ag: -22; T cruzi repl: 14; Ecoli rRNA inh: 9; Beta cell apopt: -9; Ecoli rRNA inh OD600: 7; Ecoli rRNA inh RFP: 2.5

What do the screens show for `CCNC(=O)c1cnn(-c2ccccc2)c1-c1ccccc1`?
ALR H2O2 inh: 0; LANA-H2B inh: 1.3; Calb FLC: 9; A1 inh: -0.5; B2AR ag: -7; T cruzi repl: -9; Ecoli rRNA inh: -1; Beta cell apopt: -4; Ecoli rRNA inh OD600: -6; Ecoli rRNA inh RFP: -0.7

What do the screens show for `O=C1COc2ccc(C(=O)c3ccccc3C(=O)O)cc2N1`?
ALR H2O2 inh: -6; LANA-H2B inh: 0.1; Calb FLC: 5; A1 inh: -0.4; B2AR ag: 1; T cruzi repl: -14; Beta cell apopt: -12

How did CCCOc1ccc(C(=O)OCCN2CCCCC2)c(O)c1 do in these assays?
ALR H2O2 inh: -1; LANA-H2B inh: 1.3; Calb FLC: -19; A1 inh: 0.0; B2AR ag: -8; T cruzi repl: 19; Ecoli rRNA inh: -1; Beta cell apopt: -6; Ecoli rRNA inh OD600: -7; Ecoli rRNA inh RFP: 2.1

How did COc1ccc(NC(=S)NC(=NS(=O)(=O)c2ccc(Cl)cc2)c2ccccc2)cc1 do in these assays?
ALR H2O2 inh: -1; LANA-H2B inh: -0.8; A1 inh: -0.2; B2AR ag: -2; Ecoli rRNA inh: 5; Beta cell apopt: -5; Ecoli rRNA inh OD600: -5; Ecoli rRNA inh RFP: -3.4

Results for COc1ccc(/C=C/C(=O)c2ccc3ccccc3c2O)cc1CN1CCOCC1 ?
ALR H2O2 inh: -21; LANA-H2B inh: 11; Calb FLC: 12; A1 inh: 0.0; B2AR ag: -16; T cruzi repl: 17; Beta cell apopt: 1

How did Nc1ccc(CNc2ncn[nH]2)cc1 do in these assays?
ALR H2O2 inh: -66; LANA-H2B inh: -0.4; Calb FLC: -2; A1 inh: 0.2; B2AR ag: -2; T cruzi repl: -15; Ecoli rRNA inh: 16; Beta cell apopt: -5; Ecoli rRNA inh OD600: 7; Ecoli rRNA inh RFP: 2.0

How did COc1ccc(-c2noc(CCC(=O)NC3CCCCC3)n2)cc1OC do in these assays?
LANA-H2B inh: -4.0; Calb FLC: inconclusive; A1 inh: 0.8; B2AR ag: 18; T cruzi repl: -2; Beta cell apopt: 4

What do the screens show for `COc1ccccc1NC(=O)CSc1ncn(-c2ccccc2)n1`?
ALR H2O2 inh: 13; LANA-H2B inh: -3.9; Calb FLC: -4; A1 inh: 0.5; B2AR ag: -5; T cruzi repl: -2; Beta cell apopt: 2

What do the screens show for `CC(=O)N1c2ccc(S(=O)(=O)N3CCC(C(=O)N4CCN(c5ccc(Cl)cc5)CC4)CC3)cc2CC1C` (configuration not stated)?
ALR H2O2 inh: 0; LANA-H2B inh: -1.3; Calb FLC: -24; A1 inh: 0.1; B2AR ag: -1; T cruzi repl: 6; Ecoli rRNA inh: 1; Beta cell apopt: 38; Ecoli rRNA inh OD600: -12; Ecoli rRNA inh RFP: 2.8

Results for Cc1cc(N/N=C/c2ccc(O)cc2O)nc(N2CCOCC2)n1 ?
ALR H2O2 inh: 97*; LANA-H2B inh: 0.0; Calb FLC: 16; A1 inh: 0.1; B2AR ag: 16; T cruzi repl: 2; Ecoli rRNA inh: 22; Beta cell apopt: -6; Ecoli rRNA inh OD600: -39; Ecoli rRNA inh RFP: 0.1

Results for CC(=O)c1ccc(NC(=O)Nc2ccc(Cl)cc2)cc1 ?
ALR H2O2 inh: -2; LANA-H2B inh: -0.2; Calb FLC: 15; A1 inh: -0.9; B2AR ag: 17; T cruzi repl: -1; Ecoli rRNA inh: -12; Beta cell apopt: 18; Ecoli rRNA inh OD600: -6; Ecoli rRNA inh RFP: -20

Results for CC(=O)N1CCCc2cc(S(=O)(=O)N3CCCC(C(=O)NCc4ccc(C)cc4)C3)ccc21 (configuration not stated) ?
ALR H2O2 inh: 2; LANA-H2B inh: 1.5; Calb FLC: -22; A1 inh: -0.4; B2AR ag: 7; T cruzi repl: -5; Ecoli rRNA inh: 14; Beta cell apopt: 3; Ecoli rRNA inh OD600: 6; Ecoli rRNA inh RFP: 2.5

How did O=C(Nc1ccc(Cl)c(Cl)c1)C1=Cc2ccccc2OC1 do in these assays?
ALR H2O2 inh: -5; LANA-H2B inh: -7.0; Calb FLC: -12; A1 inh: -1.1; B2AR ag: -1; T cruzi repl: 17; Beta cell apopt: -4

What do the screens show for `COCOc1ccc(/C=C/C(=O)c2c(OCOC)cc(OCOC)c(CC=C(C)C)c2O)cc1OCOC`?
ALR H2O2 inh: 0; LANA-H2B inh: -2.7; Calb FLC: -8; A1 inh: -0.6; T cruzi repl: 11; Beta cell apopt: -3

Results for O=C(O)CC(NC(=O)C(c1ccccc1)c1ccccc1)c1ccc(F)cc1 (configuration not stated) ?
ALR H2O2 inh: -1; LANA-H2B inh: 3.1; Calb FLC: -10; A1 inh: 1.6; B2AR ag: 6; T cruzi repl: 0; Ecoli rRNA inh: -1; Ecoli rRNA inh OD600: -2; Ecoli rRNA inh RFP: -0.6

Results for COc1ccc(S(=O)(=O)N2CCCCC2)cc1NS(=O)(=O)c1ccc(CNC(C)=O)cc1 ?
ALR H2O2 inh: 4; LANA-H2B inh: -1.0; A1 inh: -0.6; B2AR ag: -2; Ecoli rRNA inh: 9; Beta cell apopt: -3; Ecoli rRNA inh OD600: 3; Ecoli rRNA inh RFP: 3.1

How did COc1ccc(OCC(=O)c2c(O)c3ccccc3oc2=O)cc1 do in these assays?
ALR H2O2 inh: 13; LANA-H2B inh: -3.1; Calb FLC: -6; A1 inh: 0.3; B2AR ag: -1; T cruzi repl: -13; Ecoli rRNA inh: -1; Beta cell apopt: 3; Ecoli rRNA inh OD600: -3; Ecoli rRNA inh RFP: 11

Structural class: the compounds so far with a thiophene ring, fused or not
Results for COC(=O)Cn1c(=NC(=O)c2sc3ccccc3c2Cl)sc2cc(S(N)(=O)=O)ccc21 ?
ALR H2O2 inh: -9; LANA-H2B inh: 7.4; Calb FLC: 5; A1 inh: 0.0; B2AR ag: -3; T cruzi repl: 19; Ecoli rRNA inh: 12; Beta cell apopt: -1; Ecoli rRNA inh OD600: 7; Ecoli rRNA inh RFP: 9.1

What do the screens show for `O=C(CNC(=O)c1ccco1)N/N=C/c1cccs1`?
ALR H2O2 inh: -4; LANA-H2B inh: -2.1; Calb FLC: -2; A1 inh: 0.9; B2AR ag: 1; T cruzi repl: -16; Ecoli rRNA inh: 10; Beta cell apopt: 2; Ecoli rRNA inh OD600: 5; Ecoli rRNA inh RFP: 2.5

Assay outcomes (PubChem BioAssay)
